rRNA inh HTS = inhibits bacterial ribosomal RNA function over humanized ribosomes | E. coli WT GFP vs humanized-ribosome RFP mutants, fluorescence, 24 h; hits give low values; DMSO median 0, no signal -100 | GFP signal change (wild-type ribosome), % (no concentration beside the values) | actives 1.6% (n = 350,000);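 active = significant combined selectivity score with lowered wild-type GFP, culture density cut under 30%, mutant RFP and density less affected; inactive = any of these conditions unmet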; note: one replicate is shown; some compounds called inactive have numbers as strong as hits
rRNA inh HTS OD600 = second read-out of rRNA inh HTS, no call of its own (marks repeat the call); OD600 change, %; measured here: OD600 growth;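 optical density of the mix in the first replicate; 0 = DMSO median and -100 = no signal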
rRNA inh HTS RFP = second read-out of rRNA inh HTS, no call of its own (marks repeat the call); RFP signal change, %; measured here: RFP humanized mutant strains;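 first replicate; 0 = DMSO median and -100 = no signal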
* hit, by the source's call. A portion of the library; count on the stated rates, not on these rows.

SMILES	rRNA inh HTS	rRNA inh HTS OD600	rRNA inh HTS RFP
CCCN(C)C[C@H]1Oc2cc(C#CC3CCCCC3)ccc2S(=O)(=O)N([C@@H](C)CO)C[C@H]1C	3	-11	13
O=C(N[C@@H]1CC[C@H](CC(=O)N2CCCCC2)O[C@@H]1CO)c1ccccn1	4	8	-0.4
CS(=O)(=O)Nc1ccc2c(c1)[C@H]1C[C@@H](CC(=O)NCc3cccc(F)c3)O[C@H](CO)[C@H]1O2	2	13	0.8
Cc1ccc2c(=O)n3c(nc2c1)C(CC(C)C)NC(=O)c1cccnc1-3 (stereo unspecified)	0	2	-1.2
C[C@H]1CN([C@@H](C)CO)C(=O)c2cccc(NS(=O)(=O)c3cccs3)c2O[C@@H]1CN(C)Cc1ccc(Oc2ccccc2)cc1	3	1	1.0
COC(=O)Cc1nnn2c1[C@H](C)[C@H](C(C)(C)C)OCC2	21	10	2.6
C[C@@H]1CCCCO[C@@H](CN(C)C(=O)NC2CCCCC2)[C@@H](C)CN([C@@H](C)CO)C(=O)c2cc(N(C)C)ccc2O1	2	8	0.2
CNC[C@H]1Oc2ccc(NC(=O)Nc3ccc(C(F)(F)F)cc3)cc2C(=O)N([C@H](C)CO)C[C@H]1C	5	7	-0.4
CCC(=O)N1CC2(CN(C(=O)Nc3c(C)noc3C)C2)c2c([nH]c3cc(OC)ccc23)[C@H]1CO	4	10	1.2
COc1ccc2c3c(n(C)c2c1)[C@@H](CO)N(C(=O)C1CC1)CC31CCN(C(=O)CN(C)C)CC1	0	2	-4.7
COC(=O)[C@@]12C[C@@H](CC(=O)NCCc3ccccc3OC)C(=O)N(Cc3ccc4c(c3)OCO4)C1=CCC(C)(C)C2	15	19	14
COc1cccc(NC(=O)N[C@H]2C=C[C@@H](CC(=O)N3CCOCC3)O[C@H]2CO)c1	0	2	-0.6
C[C@@H]1CCCCO[C@@H](CN(C)S(C)(=O)=O)[C@H](C)CN([C@H](C)CO)C(=O)c2cc(NC(=O)Nc3ccc4c(c3)OCO4)ccc2O1	2	11	-0.2
C[C@@H]1CN([C@H](C)CO)C(=O)c2cc(NS(=O)(=O)c3ccccc3)ccc2O[C@@H]1CN(C)S(=O)(=O)c1cn(C)cn1	2	8	-0.5
CCCNC(=O)Nc1ccc2c(c1)OC[C@@H](C)N(Cc1ccccc1)C[C@H](C)[C@H](OC)CN(C)C2=O	-6	-18	-0.6
C[C@@H]1CN([C@H](C)CO)C(=O)c2cc(-c3cccc(C#N)c3)cnc2O[C@H]1CN(C)Cc1cccnc1	-2	-6	-1.0
Cc1[nH]nc2c1C(c1cccc(C(F)(F)F)c1)N(Cc1ccccc1)C2=O (stereo unspecified)	3	14	-5.0
O=C(C[C@@H]1C[C@@H]2c3cc(NC(=O)NC4CCCC4)ccc3O[C@@H]2[C@H](CO)O1)NCCc1ccccc1	-3	0	2.6
Cc1ccc(NC(=O)c2nc[nH]c2C(=O)Nc2ccccc2F)cc1	7	6	-3.7
Oc1ccc(C[C@H]2CN([C@@H](Cc3ccccc3)CN3CCCC3CN3C(=S)NC[C@@H]3Cc3ccccc3)C(=S)N2CCc2ccccc2)cc1 (stereo partly specified)	18	28	6.8

Four consecutive entries already listed, quoted:
SMILES	rRNA inh HTS	rRNA inh HTS OD600	rRNA inh HTS RFP
Cc1[nH]nc2c1C(c1cccc(C(F)(F)F)c1)N(Cc1ccccc1)C2=O (stereo unspecified)	3	14	-5.0
O=C(C[C@@H]1C[C@@H]2c3cc(NC(=O)NC4CCCC4)ccc3O[C@@H]2[C@H](CO)O1)NCCc1ccccc1	-3	0	2.6
Cc1ccc(NC(=O)c2nc[nH]c2C(=O)Nc2ccccc2F)cc1	7	6	-3.7
Oc1ccc(C[C@H]2CN([C@@H](Cc3ccccc3)CN3CCCC3CN3C(=S)NC[C@@H]3Cc3ccccc3)C(=S)N2CCc2ccccc2)cc1 (stereo partly specified)	18	28	6.8

(list continues)
SMILES	rRNA inh HTS	rRNA inh HTS OD600	rRNA inh HTS RFP
C[C@H](CO)N1C[C@H](C)[C@@H](CN(C)Cc2ccc(C(=O)O)cc2)Oc2ccc(NC(=O)Nc3ccc(C(F)(F)F)cc3)cc2CC1=O	-2	-12	0.4
C/C(=N\NC(=O)c1nnn(-c2nonc2N)c1CSc1ccc(C)cc1)c1cccs1	4	0	4.6
C[C@@H]1CN([C@@H](C)CO)C(=O)c2cccc(NS(=O)(=O)c3ccc(F)cc3)c2O[C@@H]1CN(C)S(=O)(=O)c1ccc(Cl)cc1	-4	-7	0.0
Cc1ccc(NC(=O)CN2CCN(S(=O)(=O)c3ccc4c(c3)OCCO4)CC2)c(C)c1	-10	-10	6.1
CCCC#Cc1ccc([C@H]2[C@H](CO)N3C(=O)CN(S(=O)(=O)c4ccccc4C)C[C@@H]23)cc1	-9	-29	7.7
O=C(C1CCC1)N1C[C@@H]2[C@H](c3ccccc31)[C@H](CO)N2C(=O)c1ccccc1F	-1	6	2.9
Cc1noc(C)c1NC(=O)Nc1cccc2c1O[C@H](CN(C)Cc1ccc(-c3ccccc3)cc1)[C@H](C)CN([C@@H](C)CO)C2=O	3	3	0.0
C[C@@H]1CN([C@H](C)CO)C(=O)c2cc(NC(=O)CCCN(C)C)ccc2O[C@@H]1CN(C)CC1CCCCC1	4	1	-2.4
CN1[C@@H]2Cn3c(ccc(-c4ccccc4)c3=O)[C@H]1[C@@H](C(=O)Nc1nccs1)[C@@H]2CO	-1	-12	-1.6
C[C@H](CO)N1C[C@H](C)[C@H](CN(C)S(=O)(=O)c2ccc(Cl)cc2)OCc2cn(nn2)CCCC1=O	-2	-2	1.6
C[C@@H]1CN([C@H](C)CO)C(=O)Cc2cc(NC(=O)C3CCCCC3)ccc2O[C@H]1CN(C)S(=O)(=O)c1ccccc1	-5	0	-0.9
Cc1cc(Br)cn2c(Cc3cccc(Cl)c3)c(C3CCCCC3)nc12	20	11	6.3
O=C(C1CN(C(=O)c2cc3ccccc3o2)c2ccccc2O1)N1CCCCC1 (stereo unspecified)	-10	-14	4.5
C[C@@H]1CCCCO[C@@H](CN(C)C(=O)C2CCCCC2)[C@H](C)CN([C@@H](C)CO)C(=O)c2cc(NS(=O)(=O)c3cn(C)cn3)ccc2O1	0	-2	-2.5
COc1cccc(S(=O)(=O)N2CCCCN3[C@@H](CO)[C@H](c4ccc(C#CC(C)C)cc4)[C@@H]3C2)c1	-48	-48	-1.5
COc1ccc([C@H]2C[C@@H](n3cc(COC(=O)c4ccccc4)nn3)[C@H](O)CN2CC2CCCCC2)cc1	17	10	4.5
COCC(=O)N1CCCCN2[C@H](C1)[C@H](c1ccc(-c3ccc(F)cc3)cc1)[C@@H]2CO	-3	-3	-3.4
COc1ccc(NC(=O)N(C)C[C@H]2Oc3ccc(NC(=O)Cn4cnnn4)cc3C(=O)N([C@@H](C)CO)C[C@H]2C)cc1	0	5	0.5
COc1ccc(NC(=O)Nc2ccc3c(c2)C(=O)N([C@@H](C)CO)C[C@H](C)[C@@H](CN(C)C(=O)NC2CCCCC2)O3)cc1	3	2	-1.9
C[C@H]1CN([C@@H](C)CO)C(=O)c2cccc(NC(=O)c3ccncc3)c2O[C@H]1CN(C)S(=O)(=O)c1ccc(Cl)cc1	-9	2	-1.8

Compound profiles (already shown).
Cc1noc(C)c1NC(=O)Nc1cccc2c1O[C@H](CN(C)Cc1ccc(-c3ccccc3)cc1)[C@H](C)CN([C@@H](C)CO)C2=O in the list: rRNA inh HTS = 3; rRNA inh HTS OD600 = 3; rRNA inh HTS RFP = 0.0
C[C@@H]1CN([C@@H](C)CO)C(=O)c2cccc(NS(=O)(=O)c3ccc(F)cc3)c2O[C@@H]1CN(C)S(=O)(=O)c1ccc(Cl)cc1 in the list: rRNA inh HTS = -4; rRNA inh HTS OD600 = -7; rRNA inh HTS RFP = 0.0

Remaining list, next part
SMILES	rRNA inh HTS	rRNA inh HTS OD600	rRNA inh HTS RFP
CCc1ccccc1NC(=O)CSc1nc2cc(C(=O)NCC3CCCO3)ccc2c(=O)n1CC1CCCO1 (stereo unspecified)	-1	6	0.4
CCN1C(=O)[C@H]2[C@@H](c3ccc(OC)cc3)N[C@]3(CCCN(Cc4ccc(Br)cc4)C3=O)[C@H]2C1=O	-2	7	-4.2
CSC[C@H]1CN(Cc2ccccc2)C(=O)[C@@H]1CC(=O)Nc1ccccc1	-13	-7	0.9
CCCNC(=O)Nc1ccc2c(c1)OC[C@H](C)N(Cc1ccc(-c3ccccn3)cc1)C[C@H](C)[C@H](OC)CN(C)C2=O	-1	-2	1.2
OC[C@@H]1CN(Cc2ccco2)C[C@H](n2cnc3c(NC4CCC4)ncnc32)O1	5	17	-3.2
Cc1ccc(S(=O)(=O)N[C@H]2C=C[C@H](CC(=O)NCCc3ccncc3)O[C@H]2CO)cc1	0	2	-0.6
CN1CCN(C(=O)[C@H]2[C@H](CO)[C@H]3Cn4c(ccc(C5=CCCCC5)c4=O)[C@@H]2N3S(C)(=O)=O)CC1	4	13	-1.6
CO[C@H]1CN(C)C(=O)c2cc(NS(=O)(=O)c3ccc(-c4ccccc4)cc3)ccc2OC[C@H](C)NC[C@@H]1C	1	1	9.0
CCc1nc2ccc(C(=O)NCc3ccccc3OC)cn2c1N(CC)CCN(C)C	14	15	7.8
C/C=C/c1ccc([C@@H]2[C@@H](CO)N3CCCCN(S(=O)(=O)c4ccc(F)cc4)C[C@@H]23)cc1	4	-24	2.5
O=C(C[C@@H]1C[C@@H]2c3cc(NS(=O)(=O)c4ccc(F)cc4)ccc3O[C@@H]2[C@H](CO)O1)NCC1CC1	-3	-2	-2.5
O=C(CN1CCOCC1)N[C@H]1CC[C@@H](CCNC(=O)C2CCCC2)O[C@H]1CO	0	1	-0.2
O=C(C[C@@H]1CC[C@H](NS(=O)(=O)c2ccc(F)cc2)[C@H](CO)O1)NC1CCCCC1	-4	1	0.2
COc1cccc(NC(=O)Nc2ccc3c(c2)OC[C@H](C)NC[C@@H](C)[C@@H](OC)CN(C)C3=O)c1	-2	-3	1.9
CO[C@@H]1CN(C)C(=O)c2cc(NC(=O)Cc3ccccc3)ccc2OC[C@@H](C)N(C(=O)c2ccccc2F)C[C@@H]1C	0	-1	-0.6
C[C@@H]1CCCCO[C@H](CN(C)S(=O)(=O)c2cn(C)cn2)[C@H](C)CN([C@H](C)CO)C(=O)c2cc(NS(=O)(=O)c3ccc(Cl)cc3)ccc2O1	-1	-5	3.1
COc1ccc(CN2C[C@H](C)[C@@H](OC)CN(C)C(=O)c3ccc(NC(=O)C4CC4)cc3OC[C@@H]2C)cc1	1	-14	6.3
COc1ccc(CCNC(=O)C(=O)c2cn(CC(=O)N3CCCC3)c3ccccc23)cc1	-23	-53	-7.8
CN(C)C(=O)C[C@H]1C[C@@H]2c3cc(NC(=O)C4CCC4)ccc3O[C@@H]2[C@@H](CO)O1	-4	4	-3.1
COc1cc(NC(=O)c2sc3ncn(CC(=O)N4CCCCC4C)c(=O)c3c2C)cc(OC)c1OC (stereo unspecified)	10	13	-1.0
CC(=O)NCCNc1nc2cc(-c3cc(F)ccc3C)sc2c(=O)n1C	-1	-20	-3.9
C[C@@H]1CN([C@H](C)CO)C(=O)Cc2cc(NC(=O)Nc3ccccc3)ccc2O[C@H]1CN(C)C(=O)Nc1ccc(C(F)(F)F)cc1	-4	0	0.4
O=C(C[C@H]1CC[C@H]2[C@@H](COC[C@H](O)CN2C(=O)Nc2cccc(F)c2)O1)NCc1ccccc1F	-24	-35	12
N#C[C@@H]1[C@@H](c2ccccc2C2=CCCCC2)[C@@H](CO)N1C(=O)NC1CCCCC1	-3	-22	5.3
COc1ccc2c3c(n(C)c2c1)[C@H](CO)NCC31CN(Cc2ccccc2Cl)C1	-1	4	9.8
CN(C)C(=O)c1ccc(-c2ccc(C3[C@@H]4CN(Cc5ccccc5Cl)C[C@H]3N4)cc2)cc1 (stereo partly specified)	-7	-4	2.4
Cc1ccccc1S(=O)(=O)N1[C@@H](C#N)[C@H](c2ccc(-c3ccccc3)cc2)[C@@H]1CO	-5	-9	2.8
CNC[C@H]1OCCCC[C@H](C)Oc2ccc(N(C)C)cc2C(=O)N([C@@H](C)CO)C[C@@H]1C	10	7	0.4
CCC(=O)Nc1ccc2c(c1)C(=O)N(C)C[C@H](OC)[C@@H](C)CN(Cc1ccccn1)[C@@H](C)CO2	1	1	-1.2
C[C@@H]1CN([C@H](C)CO)C(=O)c2cc(C#Cc3ccccc3)cnc2O[C@H]1CN(C)C(=O)c1ccccn1	-1	-6	-2.1
COc1ccc(S(=O)(=O)Nc2ccc3c(c2)C(=O)N([C@H](C)CO)C[C@@H](C)[C@@H](CN(C)C(=O)C2CCCCC2)OCCCC[C@@H](C)O3)cc1	-5	-2	6.0
COc1ccc2c3c([nH]c2c1)[C@@H](CO)N(Cc1cc(F)ccc1F)CC31CN(C(=O)CN(C)C)C1	2	6	1.6
CN1c2ccc(-c3ccc(F)cc3)cc2[C@H]2[C@H](CCN2C(=O)C2CCOCC2)[C@H]1CO	0	-10	-0.6
CCOC(=O)c1cc2c(c(-c3cccc(Br)c3)n1)[C@H](CCO)N(C(=O)NC(C)C)C2	0	-2	4.9
CCC(=O)N1[C@@H]2CN(C(=O)c3ccccc3F)c3ccccc3[C@@H]2[C@@H]1CO	2	6	-3.2
CCCNC(=O)N(C)C[C@H]1Oc2cc(-c3cncnc3)ccc2S(=O)(=O)N([C@@H](C)CO)C[C@H]1C	0	1	0.6
Cc1noc(C)c1NC(=O)N(C)C[C@H]1OCCCC[C@H](C)Oc2ccc(NC(=O)Cc3ccccc3)cc2C(=O)N([C@@H](C)CO)C[C@@H]1C	-1	-1	-0.5
O=C(C[C@@H]1CC[C@H]2[C@@H](COC[C@H](O)CN2C(=O)Nc2ccc(C(F)(F)F)cc2)O1)NCC1CCCCC1	-53	-78	-15

Looked up by compound from above (two):
SMILES	rRNA inh HTS	rRNA inh HTS OD600	rRNA inh HTS RFP
O=C(C[C@H]1CC[C@H]2[C@@H](COC[C@H](O)CN2C(=O)Nc2cccc(F)c2)O1)NCc1ccccc1F	-24	-35	12
N#C[C@@H]1[C@@H](c2ccccc2C2=CCCCC2)[C@@H](CO)N1C(=O)NC1CCCCC1	-3	-22	5.3
